Screening results deposited in PubChem BioAssay by ICCB-Longwood Screening Facility, Harvard Medical School.
Ab BasE inh – BasE siderophore enzyme inhibitors, primary screen, biochemical, Acinetobacter baumannii ATCC 17978, fluorescence polarization. actives 0.1% (n = 84,000). purified BasE, fluorescence polarization binding displacement. inhibition, % (test concentration not listed);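 active = both replicates above 25% with normal brightness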;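 also: 0% = negative plate control signal and 100% = positive plate control signal; stock transfer was 100 nL into about 30 µL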
KSHV LANA nucl – inhibitors of KSHV LANA-nucleosome binding, primary screen, biochemical, fluorescence polarization, FITC-LANA1-23, chicken nucleosomes; FITC-LANA1-23 / chicken nucleosome fluorescence polarization; stronger effect = lower value; z-score (no concentration beside the values); actives 0.3% (n = 51,000);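 active = both repeat wells score below -2 in polarization z-score versus plate sample wells, excluding overly bright wells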;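 also: 100 nL library stock added to about 30 µL; numbers are from one replicate; some results filed as inactive read as strong as hits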
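Assay system: purified chicken nucleosomes with FITC-labelled LANA N-terminal peptide (1-23) / Probe or stimulus: 50 nM FITC-LANA1-23 probe / Compound dosing: pin-transferred compound, 100 nL / Times: compound with peptide–nucleosome mix 10–45 min at room temperature / Technique: fluorescence polarization, 480 nm excitation, 535 nm parallel and perpendicular emission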
* = called active by the depositor; x = no result given. A portion of the library; count on the stated rates, not on these rows.

cpd	Structure	Ab BasE inh	KSHV LANA nucl
1	O=C(CCn1nc(-c2ccc(Cl)cc2)c2ccccc2c1=O)NCC1CCCO1 (configuration not stated)	0.6	x
2	Cc1ncc2c(n1)-c1cc(F)ccc1SC2	-0.4	0.047
3	O=c1ccc(-c2ccco2)n[nH]1	-0.8	-1.69
4	O=S(=O)(c1cccc(-c2nnc3n2CCCCC3)c1)N1CCCCC1	0.1	x
5	NS(=O)(=O)c1ccc(N=Cc2c(O)n(Cc3ccc4c(c3)OCO4)c(=O)c3ccccc23)cc1	3.4	x
6	CCSc1nnc(NC(=O)CCc2ccc(C)o2)s1	0.6	0.477
7	COc1cc2c(cc1OC)CN(C(=S)Nc1ccccc1)CC2	-1.2	x
8	COC(=O)c1c(C)oc2ccc(N(C(=O)C3CCCCC3)S(=O)(=O)c3cc(C)c(C)cc3C)cc12	-1.0	x
9	CC(OC(=O)Cc1ccc(F)cc1)C(=O)Nc1ccc2c(c1)OCCO2 (configuration not stated)	0.8	x
10	CC(=O)NNc1nc(-c2ccccc2)cs1	1.5	x
11	Fc1ccc(NC(=S)N2CCC3(CC2)OCCO3)c(F)c1	-1.2	-0.355
12	O=C(NCCCN1CCOCC1)C1CCC(=O)N1C1CCCCC1 (configuration not stated)	2.5	-0.18
13	CCOC(=O)C1C(c2ccccc2)NC(=O)NC1(O)C(F)(F)F (configuration not stated)	1.2	-0.302
14	Nc1c(C(=O)NC2CCCCC2)nsc1C(=O)OCC(=O)NC1CCCCC1	1.5	0.177
15	CCC(=O)N(c1nnc(SCCCn2c(=O)c3c(ncn3C)n(C)c2=O)s1)C1CC1	1.0	x
16	Cc1cc(C)c(C#N)c(SCC(=O)N(C)C2(C#N)CCCCC2)n1	-0.1	x

In the list so far, these contain a furan ring, fused or not.
cpd	Structure	Ab BasE inh	KSHV LANA nucl
3	O=c1ccc(-c2ccco2)n[nH]1	-0.8	-1.69
6	CCSc1nnc(NC(=O)CCc2ccc(C)o2)s1	0.6	0.477
8	COC(=O)c1c(C)oc2ccc(N(C(=O)C3CCCCC3)S(=O)(=O)c3cc(C)c(C)cc3C)cc12	-1.0	x

Next part.
cpd	Structure	Ab BasE inh	KSHV LANA nucl
17	Cc1cc2c(OCC(CNC(C)(C)C)OC(=O)c3ccccc3)cccc2[nH]1 (configuration not stated)	x	0.152
18	CCN1CCCC1CNCC(O)COCC1CCCO1 (configuration not stated)	2.1	x
19	O=C(NCC1CCN(c2ccc(S(=O)(=O)N3CCOCC3)cc2)CC1)Nc1cccc(F)c1	4.4	-0.088
20	CCOC(=O)N1CCC(NC(=O)c2c(C)nn(-c3ccc(F)cc3)c2-n2cccc2)CC1	-1.4	-0.0235
21	CN1C(=O)C(O)(C2OC(C)(C)CCC2=O)c2ccccc21 (configuration not stated)	2.8	-0.537
22	CC(Sc1nc2ccccc2n1C)C(=O)Nc1ccc(N2CCOCC2)cc1 (configuration not stated)	1.1	x
23	COc1ccc(N2CCN(CCNC(=O)Cn3ncc4c([nH]c5ccc(C)cc54)c3=O)CC2)cc1	0.4	x
24	CCCc1cc(C(=O)OC)c(NC(=O)CCCC(=O)O)s1	0.8	x
25	c1cncc(-c2csc(Nc3nc4cc5c(cc4s3)OCO5)n2)c1	0.9	-0.786
26	CCC(C)N1C(=O)/C(=C\c2cnn(-c3ccccc3)c2)C(=O)NC1=S (configuration not stated)	1.7	0.526
27	CCSC1=NCCN1C(=O)c1cccc(C(F)(F)F)c1	0.8	-0.58
28	COC(=O)c1ccc(Oc2nc(C)cc(N)n2)cc1	1.0	-0.363
29	CCOC(=O)c1nnn2c1nc(Sc1nnc(-c3ccncc3)o1)c1ccccc12	-4.9	1.15
30	Cc1[nH]n(CCC#N)c(=O)c1C1=NCCCCC1	-1.0	x
31	NC(=O)NC(=O)COc1ccccc1Br	-0.4	x
32	COc1cccc(C2=NS(=O)(=O)N(C)C(C(=O)N(C)C3CCCCC3)=C2)c1	0.3	0.472
33	CCCS(=O)(=O)c1csc(C(=O)OC)c1NNS(=O)(=O)c1ccccc1C(F)(F)F	-0.7	0.542
34	CC1(C)CC(=O)C2=C(C1)c1c(ccc3ccccc13)NC2c1ccc(Br)o1 (configuration not stated)	0.9	-1.16
35	CCN1C(=O)/C(=N\N2C(=O)CSC2=S)c2ccccc21	0.2	x
36	O=C(Nc1ccccc1C(F)(F)F)C1CC2CCCC(C1)C2=O (configuration not stated)	1.2	x
37	N#Cc1c(C(F)(F)F)cc(-c2ccco2)nc1SCc1ccncc1	-2.1	0.018
38	CC(C)(C)C(=O)O/N=C(\N)Cc1ccc(-c2csnn2)cc1	-2.8	-0.04
39	OCCN(CC(O)Cn1ccc2ccccc21)CC(O)Cn1ccc2ccccc21 (configuration not stated)	2.1	-0.217
40	CC(C)(CO)NC(=O)c1ccc(Cl)c(S(=O)(=O)N2CCCCC2)c1	-0.6	0.665
41	COc1ccc(CCn2cnc3oc(-c4ccccc4)c(-c4ccccc4)c3c2=N)cc1OC	2.1	x
42	CC(C)S(=O)(=O)c1cscc1N/C=C(/C#N)C(=O)c1cccs1	0.4	-0.014
43	COc1cc2c(C#N)c(OC)nc3c2c(n1)NC(C)(c1ccc(Br)cc1)N3 (configuration not stated)	0.7	x
44	FC(F)(F)c1cccc(N2CN(CCCN3CCOCC3)CNC2=S)c1	0.8	0.628
45	CCc1ccccc1NC(=O)Nc1cc(OC)cc(OC)c1	4.5	-0.905
46	O=C(c1ccccc1)c1coc2ccccc2c1=O	1.0	-1.12
47	Cn1c(=O)c2c(nc(Oc3cccc(/C=N/NC(=O)c4nonc4N)c3)n2C)n(C)c1=O	-2.6	0.296
48	O=C(C1CCCCC1)N(c1ccc(Cl)nn1)C1CCCCC1	0.6	-0.052

Random excerpt: five records from the list.
cpd	Structure	Ab BasE inh	KSHV LANA nucl
44	FC(F)(F)c1cccc(N2CN(CCCN3CCOCC3)CNC2=S)c1	0.8	0.628
42	CC(C)S(=O)(=O)c1cscc1N/C=C(/C#N)C(=O)c1cccs1	0.4	-0.014
41	COc1ccc(CCn2cnc3oc(-c4ccccc4)c(-c4ccccc4)c3c2=N)cc1OC	2.1	x
46	O=C(c1ccccc1)c1coc2ccccc2c1=O	1.0	-1.12
43	COc1cc2c(C#N)c(OC)nc3c2c(n1)NC(C)(c1ccc(Br)cc1)N3 (configuration not stated)	0.7	x

Carrying on.
cpd	Structure	Ab BasE inh	KSHV LANA nucl
49	Cc1ccc(C)n1-c1ccc(C(=O)OCC(=O)c2cccs2)cc1	-2.0	x
50	C/C(=N\OCC(=O)Nc1ccc(S(=O)(=O)N2CCOCC2)cc1)c1ccc2c(c1)OCCO2	1.9	x
51	Cc1ccc(N=Cc2cc3ccccc3[nH]c2=O)cc1	-2.3	x
52	Cc1oc2c(F)c(F)c(F)c(F)c2c1C#N	0.6	-0.32
53	CCc1sc(C(=O)NN)cc1C	0.6	x
54	OCCNCC(O)Cn1ccc2ccccc21 (configuration not stated)	1.4	0.436
55	NC(=O)CN1CCN(Cc2ccc3c(c2)OCO3)CC1	3.0	0.667
56	COc1ccccc1-c1nc(SC)n[nH]1	-0.7	0.116
57	O=C(NCc1cccnc1)c1ccc(S(=O)(=O)N2CCCCC2)cc1	2.1	-1.1
58	Cc1cccc(C(CC(=O)N2CCCC2)c2ccccc2)c1O (configuration not stated)	1.4	x
59	CCc1c(C)sc(NC(=O)C2c3ccccc3Oc3ccccc32)c1C(=O)OC	1.9	x
60	COc1cccc(-n2cnnc2SCC(=O)c2ccc(CNC(=O)C(C)(C)C)s2)c1	-1.6	x
61	CN1C/C(=C\c2ccc(N3CCOCC3)cc2)C(=O)/C(=C/c2ccc(N3CCOCC3)cc2)C1	1.3	1.49
62	COc1ccc(-c2csc(Nc3ccccc3)n2)cc1OC	2.3	0.992
63	FC(F)(F)c1ccc2nc(SCc3ccc(Br)cc3)[nH]c2c1	2.9	x
64	COc1ccc(C(CNC(=O)c2ccc(OCc3c(C)noc3C)cc2)N2CCCC2)cc1 (configuration not stated)	-0.8	x
65	CCN(CC(=O)Nc1cccc(F)c1)CC(=O)Nc1ccccc1OC	1.0	x
66	CCOC(=O)c1c(C2CC2)csc1NC(=O)CSc1nnc(C(CC)N(C)C)o1 (configuration not stated)	2.0	x
67	CC(C)C(=O)N1CCC(c2nc(-c3ccc(F)cc3)no2)CC1	3.2	0.28
68	CN(C)C(=O)/C=C/c1ccc(Cl)cc1	12.0	x
69	CCOC(=O)C1=C(C)NC(=O)C1CC(=O)Nc1ccc(C(=O)OCC)cc1 (configuration not stated)	3.7	x
70	CCOc1nc(-c2ccccc2)ccc1-c1noc(-c2ccccc2F)n1	-0.2	-0.47
71	O=S1CCCCC1	1.5	1.5
72	CC(=O)Oc1cccc(OC(C)=O)c1OC(C)=O	-0.6	x
73	O=C(O)CCC(=O)Nc1cccc(C(=O)N2CCCCC2)c1	0.8	-2.25
74	O=C(OCc1cc(=O)n2ccsc2n1)C1CCCCC1	0.0	-0.583
75	O=C(O)CNC(=O)C1CC1	-0.8	x
76	CC(C)(C)C(/C=C/c1ccc(Cl)cc1Cl)n1nnnc1C(C)(C)N1CCOCC1 (configuration not stated)	3.6	x
77	COc1ccc(-c2nnc3n2N=C(N)CS3)cc1OC	0.6	0.224
78	Cc1ccc(C2C3=C(CC(C)(C)CC3=O)Nc3onc(C)c32)cc1 (configuration not stated)	0.6	x
79	CCc1nc2cccnc2n1-c1ccc(CC(=O)NC(C)CC)cc1 (configuration not stated)	1.2	0.176
80	O=C(O)C1CSC(c2ccncc2)=N1 (configuration not stated)	-0.1	2.34
81	Cc1cc(F)ccc1NS(=O)(=O)c1cc2[nH]c(=O)c(=O)[nH]c2cc1C	1.2	0.101
82	CCc1ccc2c(CC(=O)N(C)Cc3ccccc3OC)coc2c1	-0.4	x
83	CC(C)N(C(=O)CNCc1cccs1)C(C)C	0.9	-1.09
84	CC(=O)N[C@@H](Cc1c[nH]c2ccccc12)C(=O)NCc1ccccc1	-0.7	x
85	CCOC(=O)N1CCN(C(=O)C(C)Oc2ccc(Br)cc2)CC1 (configuration not stated)	-0.3	-0.44
86	FC(F)Oc1ccc(Cl)c2ccccc12	1.0	x
87	CCCCN(C)c1nc(CC)c2c(c1C#N)CC(C)(C)OC2	-4.2	x
88	C=CCNc1nc(C(=O)OCCCn2c(=O)[nH]c3ccccc32)cs1	-0.1	x
89	CC(N)C1CC2CCC1C2 (configuration not stated)	0.4	x
90	CC(C)N(Cc1nnc(-c2ccc(Cl)cc2)o1)C(=O)/C=C/c1ccc(F)cc1	-2.4	x
91	COC(=O)c1ccc2c(=O)[nH]c(COC(=O)c3c(-c4ccccc4)noc3C)nc2c1	-1.2	x
92	O=c1[nH]c(CSc2nnc(-c3ccccc3)n2Cc2ccco2)nc2scc(-c3ccccc3)c12	-2.4	x
93	Cc1ccc(C(=O)c2ccccc2C(=O)OCC(=O)N2CCCC2)cc1	0.8	x
94	CCN(c1ccccc1)S(=O)(=O)c1cc(C(=O)OC)n(C)c1	1.5	-0.551
95	O=C1C=CC(=NOC(=O)c2ccc(Cl)cc2)C=C1	0.4	-0.371
96	CCS(=O)(=O)c1ccc(O)c(NC(=O)COc2ccc(OC)cc2)c1	1.0	x
97	O=c1nc2sc3ccccc3n2c(=O)n1-c1ccccc1	-4.0	x
98	O=C(NCc1ccccc1)C1=NS(=O)(=O)c2ccccc2N1	1.8	0.351
99	O=C(Nc1cccnc1)c1[nH]nc2c1CCc1ccccc1-2	7.5	-0.309
100	CC(O)CN(CC(C)O)c1ncnc2c1sc1nc3c(cc12)COC(C)(C)C3 (configuration not stated)	2.4	-0.0335
101	Clc1ncccc1-c1nc2ccccc2n1Cc1ccccc1	x	0.667
102	O=C1NCC(O)=C1C=NC12CC3CC(CC(C3)C1)C2	3.3	-0.325
103	COc1ccc(C2CCCN2CC(O)COc2ccccc2C(C)C)cc1 (configuration not stated)	0.5	x
104	Cc1cc(NC2CCCCC2)nc(NCc2ccccc2)n1	-5.0	x

(further entries)
cpd	Structure	Ab BasE inh	KSHV LANA nucl
105	CN(C)S(=O)(=O)c1ccc(NC(=O)Cn2ccsc2=N)cc1	0.1	x
106	Cc1ccc(CN2CCC(CNC(=O)Nc3ccc4c(c3)OCCO4)C2)cc1 (configuration not stated)	0.1	0.076
107	N#CCc1c(C#N)c(N)nc(N2CCc3ccccc32)c1C#N	1.4	x
108	O=C(CCCSc1nc2ccccc2[nH]1)N1CCN(S(=O)(=O)Cc2ccccc2)CC1	1.4	x
109	C=CCn1c(-c2ccncc2)n[nH]c1=S	-2.9	1.9
110	COc1cccc(NC(=O)CSc2ncc3c(n2)-c2ccccc2N(C)S3(=O)=O)c1	-1.2	0.964
111	COc1ccc(NC(=O)c2ccoc2COc2ccc(C)cc2)cc1	0.1	0.246
112	O=C(c1cccc(NC2=NC3CS(=O)(=O)CC3S2)c1)N1CCN(C(=O)c2ccco2)CC1 (configuration not stated)	0.0	0.123
113	CCS(=O)(=O)Nc1ccc(N2CCCCC2)cc1	2.8	x
114	Cc1ccc(C2(C)NC(=O)N(CC(=O)C(C)(C)C)C2=O)cc1 (configuration not stated)	-1.9	x
115	Cc1[nH]c2cccc(C(=O)O)c2c1C	-3.5	1.88
116	CCc1nn(C)c(N)c1C	-0.6	0.259
117	COc1ccc([C@H]2Sc3ccccc3N(CCN(C)C)C(=O)[C@H]2OC(C)=O)cc1	0.3	-0.188
118	O=C(NCC1CCCO1)c1ccc(N2CC3CC(C2)c2cccc(=O)n2C3)c(NS(=O)(=O)c2ccc(F)cc2)c1 (configuration not stated)	-1.0	-0.473
